miR-21 FLuc: miR-21 reporter, rising signal; HeLa miR-21 FLuc reporter, luciferase, 48 h; Potency, µM (series often up to 38.3 µM), without a hit: top-dose reporter change, positive = more light; 340,000 tested, under 10 active; AID 2288; active = well fitted rising curve with a large enough effect; inconclusive = small, poorly fitted or top-dose-only effect; inactive = no such curve, though single readings can be large or run the other way;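 note: % of control where 0% means no effect; miR-21 action dims this reporter so a rising signal means less miR-21 action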
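Compounds were titrated across several concentrations (up to approximately 40 uM) and incubated 48 hours with HeLa miR-21-FLuc reporter cells (miR-21 target sequence downstream of FLuc, endogenous miR-21). Readout was firefly luciferase luminescence after lytic detection reagent.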
The depositor's hits bear a star; u = inconclusive.

Preview:
miR-21 FLuc | smiles
-8.0% | Cc1ccc(C)c(NC(=O)c2cc(S(=O)(=O)N3CCCCCC3)ccc2F)c1
-4.6% | CCCNc1ccc(-c2nc(-c3ccccn3)no2)cc1[N+](=O)[O-]
u | Cc1ccc(C)c(-n2c(CCC(=O)O)ccc2-c2ccc(Cl)cc2)c1
10.3% | Cc1ccc(-n2c(SCc3ccccc3C)nc3[nH]ncc3c2=O)cc1C
-4.6% | Cc1ccc(C)c(NC(=O)CSc2c3c(nc4ccc(Cl)cc24)CCCC3)c1
-3.9% | Clc1ccc(-c2csc(-c3nc(-c4ccc(Br)s4)cs3)n2)cc1

All compounds of this part, previewed entries included:
miR-21 FLuc | smiles
-8.0% | Cc1ccc(C)c(NC(=O)c2cc(S(=O)(=O)N3CCCCCC3)ccc2F)c1
-4.6% | CCCNc1ccc(-c2nc(-c3ccccn3)no2)cc1[N+](=O)[O-]
u | Cc1ccc(C)c(-n2c(CCC(=O)O)ccc2-c2ccc(Cl)cc2)c1
10.3% | Cc1ccc(-n2c(SCc3ccccc3C)nc3[nH]ncc3c2=O)cc1C
-4.6% | Cc1ccc(C)c(NC(=O)CSc2c3c(nc4ccc(Cl)cc24)CCCC3)c1
-3.9% | Clc1ccc(-c2csc(-c3nc(-c4ccc(Br)s4)cs3)n2)cc1
2.8% | COc1ccc(C)cc1NS(=O)(=O)c1cc2c3c(c1)CC(=O)N3CCC2
0.6% | COCCCNC(=O)C1CCCN(S(=O)(=O)c2ccc3c(c2)oc(=O)n3C)C1 (stereo not drawn)
5.1% | Cc1cccc(CC(=O)Nc2ccc3nc(N4CCC(C)CC4)cc(C)c3c2)c1
-3.3% | COc1cc(NC(=O)c2nc3nc(C)cc(C(F)F)n3n2)c(OC)cc1Cl
u | O=C(NCC(c1ccccc1)c1ccccc1)c1nn(-c2ccccc2Cl)nc1CO
2.8% | CN(C)C(=O)c1ccc(NC(=O)Cn2nnnc2-c2ccccc2F)cc1
-4.3% | CSc1cccc(NC(=O)CN(C)S(=O)(=O)c2ccc3c(c2)n(C)c(=O)c(=O)n3C)c1
0.2% | Cc1cccc(N2C(=O)N(Cc3cc(=O)n4ccccc4n3)c3ccccc3S2(=O)=O)c1
-3.2% | COc1ccc(-c2noc(-c3cccnc3NCc3ccco3)n2)cc1
-29.4% | COc1ccc(NC(=O)c2sc3nc(-c4cc5cccc(OC)c5oc4=O)[nH]c(=O)c3c2C)cc1
u | Cc1ccc(C)c(N2CCN(C(=O)Cn3c(C)c4cnn(-c5ccccc5)c(=O)c4c3C)CC2)c1
-2.7% | CC(C)c1ccc(NC(=O)CSC2=Nc3ccccc3C3=NC(CC(=O)NCc4ccc(F)cc4)C(=O)N23)cc1 (stereo not drawn)
-2.1% | CCOC(=O)c1cc(-c2ccccc2)n(CC(=O)Nc2ccccc2OCC)c1C
23.6% | Cc1ccc(-c2nnc(SCC(=O)NCc3ccccc3)nc2-c2ccc(C)cc2)cc1
-4.2% | CC(=O)n1nc(-c2cccnc2)nc1NCc1ccc(F)cc1
-1.6% | COc1cc(NC(=O)CN2CCN(CC(=O)Nc3ccc(F)cc3)CC2)cc(OC)c1
0.4% | CCC(Sc1nncn2c1cc1oc(C)cc12)C(=O)Nc1ccc(F)cc1 (stereo not drawn)
3.8% | Cc1c(C(=O)NCc2ccc(N(C)C)cc2)oc2c1-c1nn(Cc3cccc(Cl)c3)cc1CC2
0.8% | Cc1ccc(Cl)cc1-n1ncc2c(N3CCC(C(N)=O)CC3)ncnc21
-0.2% | Cn1c(=O)n(C/C=C/c2ccccc2)c(=O)c2c1nc1n2CCN1c1ccc(Cl)cc1
-7.8% | Cc1ccc(Cn2c(=O)n(-c3ccc(C)c(C)c3)c(=O)c3c(C)c(C)sc32)cc1
-2.0% | O=C(NCc1ccc2c(c1)CCN2C(=O)c1ccccc1)c1ccco1
23.5% | O=C(NC1CCCc2ccccc21)c1ccc2c(c1)sc1nc(-c3ccccc3)cn12 (stereo not drawn)
-3.7% | CCOc1ccccc1CNc1ncnc2onc(-c3ccc(F)cc3)c12
19.2% | O=C(NCc1cccc(Br)c1)C1CCN(C(=O)c2sccc2-n2cccc2)CC1
1.6% | Cc1ccc(NC(=O)CN2C(=O)COc3ccc(S(=O)(=O)N4CCCCC4)cc32)cc1N(C)C
-4.5% | CCN(CC)CCNC(=O)c1cc2c(=O)[nH]c3ccc(C)cc3c2s1
-1.3% | CCCCCCc1cc2cc(-c3nnc(-c4ccc(C)cc4)o3)c(=O)oc2cc1O
-0.2% | COc1ccc(S(=O)(=O)c2cnc(SCC(=O)Nc3cc(F)ccc3C)[nH]c2=O)cc1Cl
7.8% | CC(=O)Nc1cccc(Nc2nc3ccccc3n3c(C)nnc23)c1
-1.9% | O=C(COc1ccc(F)cc1)Nc1nnc(S(=O)(=O)N2CCc3ccccc32)s1
-7.3% | CCS(=O)(=O)N1CC(=O)N(c2cccc(Cl)c2C)C(C)(C(=O)NC2CCCCC2)C1 (stereo not drawn)
-13.0% | COc1cc(C2CC(=O)Nc3c2c(C)nn3-c2nncc(-c3ccc(C)cc3)n2)cc(OC)c1OC (stereo not drawn)
0.1% | CCOC(=O)c1c(S(=O)(=O)N2CCCC(C(=O)NCc3cccc(C)c3)C2)c(C)n(C)c1C (stereo not drawn)
5.9% | Cc1ccc(C)c2sc(N3CCN(C(=O)C(C)(C)C)CC3)nc12
-1.2% | CCOC(=O)c1c(C)oc2nc(C)nc(Nc3cc(C)cc(C)c3)c12
-13.8% | Cc1cccc(Cn2c(COc3ccccc3)nc3ccccc32)c1
-11.8% | N#C/C(=C\c1c(Oc2ccc(Br)cc2)nc2ccccn2c1=O)c1nc2ccccc2s1
3.1% | CCCC(CCC)C(=O)Nc1cccc(-c2nc3cccnc3s2)c1C
1.7% | Cc1cc(C)cc(NC(=O)CSc2nnc(-c3cc4occc4n3C)n2-c2ccccc2C)c1
-1.2% | CCOC(=O)c1ccccc1NC1(c2ccc(OC)cc2)C(=O)c2ccccc2C1=O
-2.8% | CN1CCN(C(=O)C(=O)Nc2c3c(nn2-c2ccc(F)cc2)CSC3)CC1

4 records drawn at random from those above, as already listed:
miR-21 FLuc | smiles
7.8% | CC(=O)Nc1cccc(Nc2nc3ccccc3n3c(C)nnc23)c1
-4.2% | CC(=O)n1nc(-c2cccnc2)nc1NCc1ccc(F)cc1
-4.3% | CSc1cccc(NC(=O)CN(C)S(=O)(=O)c2ccc3c(c2)n(C)c(=O)c(=O)n3C)c1
23.5% | O=C(NC1CCCc2ccccc21)c1ccc2c(c1)sc1nc(-c3ccccc3)cn12 (stereo not drawn)

Following part
miR-21 FLuc | smiles
-10.9% | CCN(CC)CCCNC(=O)C(=O)Nc1ccc2nc3n(c(=O)c2c1)CCCCC3
12.6% | COc1ccc(CCNC(=O)c2ccc3c(c2)N(Cc2ccc(Cl)cc2)C(=O)c2ccccc2S3)cc1OC
-19.4% | Cc1cccc(C(=O)Nc2cccc(C(=O)OCc3cc(=O)n4ccsc4n3)c2)c1
u | Cc1ccc(-c2nnc(SCC(=O)NCCC(C)C)nc2-c2ccc(C)cc2)cc1
-6.1% | COc1cc2c(cc1OC)n(CC(=O)c1ccc(C)cc1C)c(=O)n1nc(CCn3nc(C)cc3C)nc21
-12.8% | CCOc1ccc(C(=O)Nc2ccc3oc(-c4cccc5ccccc45)nc3c2)cc1
17.5% | CCOC(=O)c1cc(-c2ccccc2)n(-c2cccc(C(=O)NC(C)CC)c2)c1C (stereo not drawn)
-26.4% | CC1CN(C(=O)N2CCC(C(=O)NC3CCCCCC3)CC2)c2cc(Cl)ccc2O1 (stereo not drawn)
-5.6% | COc1ccc(-c2cn3cccnc3n2)cc1NC(=O)c1c(F)cccc1F
-2.0% | CN1C(=O)Cc2cc(S(=O)(=O)CCC(=O)Nc3ccc(Cl)cc3)ccc21
-4.5% | Cc1ccccc1COC(=O)c1ccc(-c2nnn(Cc3ccccc3F)n2)cc1
u | CN(C)CCN(Cc1ccco1)C(=O)c1cc2c(s1)-c1ccccc1OC2
-4.3% | O=C(NC1CCCCC1)c1ccc2c(c1)N(Cc1ccccc1)C(=O)c1ccccc1S2
12.2% | Cc1ccc(NC(=O)C(=O)NCC2(c3ccccc3)CCCC2)cc1Cl
0.9% | Oc1c(C(c2ccc(Cl)cc2Cl)N2CCOCC2)sc2nc(-c3ccco3)nn12 (stereo not drawn)
-1.7% | CCCC(=O)NCC(c1ccc2c(c1)OCO2)N1CCOCC1 (stereo not drawn)
-16.3% | Nc1cc(=O)nc(SCC(=O)Nc2ccc(F)cc2)n1-c1ccc(Cl)cc1
19.7% | CCc1cccc(C)c1NC(=O)COCc1cc(-c2ccc3c(c2)OCO3)on1
2.1% | CCN1CCC(N(Cc2ccc3c(c2)OCO3)C(=O)Nc2ccccc2OC)CC1
-2.0% | CCCSc1ncc(Cl)c(C(=O)Nc2sc3c(c2C(N)=O)CCCC3)n1
10.0% | O=C(NCc1ccccc1)c1ccc(NC(=O)N2CCSc3ncccc32)cc1
-33.3% | CCC(C)NC(=O)C1=CC(c2ccc3c(c2)OCO3)=NS(=O)(=O)N1C (stereo not drawn)
-4.4% | CCCOc1ccc(C(=O)Nc2ccc(NC(=O)c3ccc(Br)cc3)cc2)cc1
1.0% | COc1ccc(/C=C\c2onc(C)c2S(=O)(=O)N2CCC(C(=O)Nc3ccccc3OC)CC2)cc1
-1.7% | COc1ccc(C)cc1NC(=O)c1c(C(=O)Nc2cccc(C)c2C)sc2nc(C)cc(=O)n12
-2.2% | C=Cc1ccc(CSc2nc(-c3ccc(C)cc3)nc3c2Cc2c(CO)cnc(C)c2O3)cc1
-6.7% | CCCN(CCC)C(=O)CSc1nc2sc3c(c2c(=O)n1-c1ccccc1)CCN(C(C)=O)C3
-3.0% | Cc1cc(C)cc(-n2c(SCC(=O)NC3CCCCC3)nc3c([nH]c4ccccc43)c2=O)c1
4.2% | COc1cc(C2C(C(=O)Nc3ccccc3)=C(C)Nc3nc(SCc4ccccc4F)nn32)cc(OC)c1OC (stereo not drawn)
-26.2% | Cc1cc(C)cc(-n2nnc(-c3nsc(NC(=O)c4ccccc4Cl)n3)c2C)c1
0.4% | Cc1c(Cl)cccc1NC(=O)C(=O)NCC(c1cccnc1)N1CCN(c2ccccc2)CC1 (stereo not drawn)
-8.0% | CN1CCN(C(CNC(=O)c2ccc(F)cc2)c2ccc3c(c2)OCO3)CC1 (stereo not drawn)
-1.8% | Cc1cc(C)cc(C(=O)Nc2cccc(-c3nc4ncccc4o3)c2C)c1
-0.4% | CC1CCN(S(=O)(=O)c2cc(C(=O)NCc3ccc(N(C)C)cc3)n(C)c2)CC1
-5.0% | Cc1noc(/C=C/c2cccs2)c1S(=O)(=O)N1CCC(C(=O)NCc2ccccc2Cl)CC1
-0.8% | CCOC(=O)CC(NC(=O)CCc1c(C)nc2c(c1C)c(=O)n(C)c(=O)n2C)c1ccc(OCC)c(OC)c1 (stereo not drawn)
-1.9% | Cc1ccc(-n2c(=O)c3c(c4cc(C)ccc4n3C)n(CC(=O)c3ccc(Cl)cc3)c2=O)cc1
15.7% | Cc1ccc(NC(=O)C2CCC(CNS(=O)(=O)c3ccc4c(c3)CCCC(=O)N4)CC2)cc1F (stereo not drawn)
20.1% | CCOc1ccc(C2c3[nH]c4ccccc4c3CCN2C(=O)CSCc2ccc(F)cc2)cc1 (stereo not drawn)
2.2% | COc1ccccc1CNC(=O)Cn1c(-c2ccc(F)cc2)cc(C(C)=O)c1C
16.5% | Cc1ccc(N2C(=O)C(CC(=O)Nc3ccc(F)cc3)N(CCC3=CCCCC3)C2=O)cc1 (stereo not drawn)
-14.3% | CCOC(=O)Cn1c(=O)cc(-c2ccccc2)c2c(C)nn(C)c21
-1.3% | COc1ccc(S(=O)(=O)N(C)Cc2nc(-c3cccc(C)c3)no2)cc1
-2.2% | CCOc1ccc(NC(=O)Cn2c(=O)cc(C)c3c(C)nn(-c4cccc(Cl)c4C)c32)cc1
-21.3% | CCc1ccccc1NC(=O)C1CCCN(S(=O)(=O)c2ccc3[nH]c(=O)ccc3c2)C1 (stereo not drawn)
2.2% | COc1ccccc1CNC(=O)C1CCCN(c2nnc(C)c3c(C)n(-c4ccccc4)nc23)C1 (stereo not drawn)
7.7% | Cc1ccc(C)c(NC(=O)Cn2c(=O)n(Cc3nc(C)no3)c(=O)c3cc4c(cc32)OCO4)c1
-34.2% | Cc1nn2c(=O)cc(COC(=O)c3ccc(NC(=O)c4ccc(C(C)(C)C)cc4)cc3)nc2s1
-45.6% | CCN(c1ccccc1)S(=O)(=O)c1nnc(NC(=O)COc2ccccc2F)s1
1.7% | COc1ccc(NC(=O)Cn2nc(-c3ccncc3)ccc2=O)cc1Cl
0.8% | COCCNc1ncnc2c1c(-c1ccccc1)cn2-c1cccc(Cl)c1
-6.4% | Cc1ccc(OCCSc2nc3ccc(NC(=O)COc4ccc(C)cc4)cc3s2)cc1
15.6% | COC(=O)c1ccccc1NC(=O)C1=CC(c2ccc(C)cc2)=NS(=O)(=O)N1C
18.2% | CCN(CC)S(=O)(=O)c1ccc(C(=O)NCCSc2c(-c3ccc(C)cc3)[nH]c3ccccc23)cc1
-1.3% | CCN(C(=O)c1cc2c(=O)oc3ccccc3c2s1)c1ccccc1F
-0.8% | O=C(Cn1c(=O)n2nc(-c3cccc(F)c3)nc2c2ccccc21)NCc1ccc(Cl)cc1
0.0% | COc1cccc(NC(=O)CSc2nc(=O)n(Cc3ccncc3)c3c2CCC3)c1
6.8% | CC(=O)c1ccc(N2CCN(C(=O)Cn3ncc4c3-c3ccccc3OC4)CC2)cc1
19.9% | COc1cccc(-c2ccc3c(N)c(C(=O)c4ccc(Br)cc4)sc3n2)c1
u | COc1ccc(NC(=O)c2ccc3oc(=O)c(S(=O)(=O)c4ccc(F)cc4)cc3c2)cc1OC
-26.9% | CCOc1cccc(NC(=O)CSc2ncc(-c3ccccc3)[nH]2)c1
u | CCc1ccc(C(=O)c2cn(Cc3ccccc3)c3cc(OC)c(OC)cc3c2=O)cc1

High-throughput results: PubChem BioAssay, National Center for Advancing Translational Sciences (NCATS)

These rows are one share of the data (hit frequency here may not be typical).
